Screening data from PubChem BioAssay.
HSD17B inh – HSD17B dehydrogenase inhibition; recombinant HSD17B10, NADH fluorescence kinetic; many of its hits are not listed in these tables; Potency, µM (doses to about 57.1 µM), for inactives: top-dose activity change, negative = inhibition, usual class: inhibitors; actives 7.6% (n = 75,000); AID 893; active = well fitted inhibition curve with a large enough effect; inconclusive = small, poorly fitted or top-dose-only effect; inactive = no such curve, though single readings can be large or run the other way;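 also: the protocol describes HADH2 (HSD17B10) and not the HSD17B4 of the title; nearly all actives have a fitted effect of over 70% in size; most hits overshoot -100% by far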
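20 nM HADH2, pH 9.0 Tris/Tween; cpd preinc 15 min RT; start w/ 1 mM NAD+ + 90 uM b-hydroxybutyryl-CoA; kinetic fluor ex360/em450 q30s x 4 min; delta last-first.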
* marks the source's active call; other numbers are inactive results; i = inactive; u = inconclusive; [ ] = another dose, or the depositor's remark. % is scaled to controls: 0 for no effect and ±100 for the full control effect; potency is read from the fitted curve at half-maximal effect.

A first look:
SMILES | HSD17B inh
O=C(Cn1c(=O)c2c(ncn2C2CCCC2)n(Cc2ccccc2)c1=O)N1CCc2ccccc21 | -1%
CN1C(=O)C(CC(=O)N2CCN(C(c3ccccc3)c3ccccc3)CC2)N(C)C1=O (stereo unspecified) | 4%
Cc1cc(S(=O)(=O)NC2CCCC2)ccc1F | -12%
COCC(=O)N(Cc1cc2cc(OC)ccc2[nH]c1=O)c1ccc(C)cc1 | 25µM*
CCOC(=O)c1c(C)c(-c2ccccc2)n(CC(=O)N2CCN(C)CC2)c1C | 13%

Main list, from the first entry:
SMILES | HSD17B inh
O=C(Cn1c(=O)c2c(ncn2C2CCCC2)n(Cc2ccccc2)c1=O)N1CCc2ccccc21 | -1%
CN1C(=O)C(CC(=O)N2CCN(C(c3ccccc3)c3ccccc3)CC2)N(C)C1=O (stereo unspecified) | 4%
Cc1cc(S(=O)(=O)NC2CCCC2)ccc1F | -12%
COCC(=O)N(Cc1cc2cc(OC)ccc2[nH]c1=O)c1ccc(C)cc1 | 25µM*
CCOC(=O)c1c(C)c(-c2ccccc2)n(CC(=O)N2CCN(C)CC2)c1C | 13%
Cc1cc(S(=O)(=O)N(Cc2ccccn2)Cc2ccco2)ccc1-n1cnnn1 | -3%
CCOC(=O)N1CCC(NC(=O)CCc2c(C)nc3c(c(C)nn3C(C)(C)C)c2C)CC1 | -26%
Cn1c(-c2ccccc2)c(O)c(=O)c2ccccc21 | u
O=C1NCCc2c1[nH]c1c(Cl)ccc(Cl)c21 | 11%
Cn1cccc1C(=O)N1CCC2(CCN(Cc3ccc(C#N)cc3)CC2)CC1 | -1%
CC1CCCCN1C(=O)Cc1ccc(Cl)cc1 (stereo unspecified) | 5%
COC(=O)C1CCN(C(=O)COC(=O)Cc2c[nH]c3ccccc23)CC1 | -3%
O=C(NCc1ccncc1)Nc1ccccc1Cl | 8%
O=c1sc(Nc2ccccc2)nc2ccsc12 | u
O=C(Nc1ccccc1)N(Cc1cccs1)C1CCCC1 | -4%
CCOc1cc(S(=O)(=O)N2CC=C(c3ccc(F)cc3)CC2)c(OCC)cc1-n1cnnn1 | u
Cc1noc(C)c1-c1ccc2ncnc(N3CCN(C)CC3)c2c1 | -28%
COC(=O)c1ccc(C(NC(=O)OCc2ccccc2)/C(C)=C/[C@@H](C)C(=O)NCc2cccnc2)cc1 (stereo partly specified) | 5%
CC1=C(C(=O)N2CCOCC2)C(c2ccccc2F)C2=C(CCCC2=O)N1 (stereo unspecified) | 25µM*
COCCN(Cc1cc2cc3c(cc2n2nnnc12)OCO3)C(=O)c1ccccc1F | 9%
O=C(NC1=NCCS1)c1ccncc1 | 4%
O=C1NCCCC1C(=O)NCCNC(=O)C(F)(F)F (stereo unspecified) | 7%
Nc1ncnc2c1[nH]c(=O)n2C1OC(CO)C(O)C1O (stereo unspecified) | 5%
Cn1c(=O)c2c(nc(N3CCCCCC3)n2CC(=O)c2ccc(Br)cc2)n(C)c1=O | 1%
O=C(O)c1ccc(CS(=O)c2cccc(C(F)(F)F)c2)o1 (stereo unspecified) | -13%
COc1ccc(NC(=O)C2CCCN(S(=O)(=O)c3ccc(C)cc3)C2)cc1OC (stereo unspecified) | 7%
c1ccc(N=P(c2nc3ccccc3o2)(N2CCOCC2)N2CCOCC2)cc1 | 12%
Cc1ccc(N(C)C(=O)N2CCN(c3ccccn3)CC2)cc1 | u
COc1cc(NC(=O)CN2C(=O)c3ccccc3C2=O)c(C(=O)O)cc1OC | 13%
COc1ccc(N2C(=O)C3CCCN3C2c2cc(OC)c(OC)c(OC)c2)cc1 (stereo unspecified) | 4%
CCOC(=O)Nc1ccc(C(N)=O)cc1 | 0%
N#Cc1nc(COc2ccccc2)oc1N1CCCCC1 | -1%
COc1ccc(CN(C(=O)Cn2nnc3ccccc32)C(C(=O)NC(C)(C)C)c2ccco2)cc1 (stereo unspecified) | -3%
CCN(CC)CCNC(=O)c1cn(C)c2ccc(S(=O)(=O)N(C)C3CCCCC3)cc2c1=O | 6%
O=c1c2ccccc2c(C=NCCCN2CCOCC2)c(O)n1Cc1ccccc1 | 3%
CCCN1C(=O)C(NS(=O)(=O)c2ccc(N)cc2)(C(F)(F)F)C(C(=O)OC)=C1C (stereo unspecified) | -5%
COc1cccc2cc(C(=O)N3CCN(c4ccccc4F)CC3)c(=O)oc12 | -3%
Cn1c(O)c(N=N/C(=N/c2ccccn2)c2ccccn2)c2cc(Br)ccc21 | u
CC(=O)c1ccc(-c2nc3c4ccccc4ccn3c2C(C)=O)o1 | 20µM*
CCOc1ccc(C(C)NC(=O)CCC(=O)O)cc1 (stereo unspecified) | -1%
Cn1c(Cc2cccs2)nnc1SCC(=O)N1CCc2ccccc21 | u
Cc1cc(NS(=O)(=O)c2ccc(C3CCCCC3)cc2)no1 | 8%
S=c1nc[nH]c2c1ncn2Cc1ccco1 | -1%[11.4 µM]
O=C(c1cccc(S(=O)(=O)N2CCOCC2)c1)N1CCOCC1 | 2%
CC(C)(C)c1ccc(-c2nnc(SCCC#N)n2C2CCCC2)cc1 | -7%
O=C(Nc1ccccc1Cl)c1cccs1 | 0%
CC(C)Cc1cc(C(=O)NCCN2CCOCC2)no1 | 3%
Cc1ccc(-c2nnn(CC(=O)Nc3cccc4cccnc34)n2)o1 | u
Cc1nc2oc(C(=O)c3ccccc3)c(N)c2c2c1COC(C)(C)C2 | 3%
CCOC(=O)C1CCN(Cc2c(O)ccc3ccccc23)CC1 | u
CN(C)S(=O)(=O)N1CCN(c2cccc(Cl)c2)CC1 | 5%
CC(=O)C=NCC(=O)O | 0%[11.4 µM]
CCOCCCn1c(C)nc2c(c1=O)c1nc3ccccc3nc1n2-c1ccc(C)cc1 | 4%
N#CCCn1c(C(C#N)(CCC#N)CCC#N)nc2ccccc21 | 6%
COc1cc(OC)cc(C(=O)NCC(=O)N2CCC(C)CC2)c1 | 7%
COc1cccc(C2C(C#N)=C(N)Oc3c2oc(CO)cc3=O)c1OC (stereo unspecified) | -13%
Cc1onc(-c2ccccc2)c1C(=O)OCC(=O)c1ccccc1 | 17%
CC(C)CC(C(=O)Nc1oc(-c2ccco2)c(-c2ccco2)c1C#N)N1C(=O)c2ccccc2C1=O (stereo unspecified) | 2.5µM*
CCn1c(SCC(=O)Nc2ccccc2C(=O)OC)nnc1-c1ccoc1C | -7%
Cc1c(NC(=O)c2ccc(CN3CCc4ccccc4C3)cc2)c(=O)n(-c2ccccc2)n1C | 2%
(further entries)
SMILES | HSD17B inh
O=C(Nc1ccc(Cl)cc1)N1CCCC1 | 3%
CCCn1c(CNc2ccc(Br)cc2)nc2ccccc21 | -8%
COc1ccc2c(=O)c3c(=O)n(Cc4ccco4)c(C4CCCCC4)nc3oc2c1 | 4%
Cc1ccc2[nH]c(=S)cc(C)c2c1 | -18%
CCCCCCCCCCCCCCCC(=O)NCCc1ccc(O)c(O)c1 | u
CC(=O)Oc1ccccc1-c1nc(C)nc(N(C)C(C)=O)n1 | 5%
Cc1oc2cc(O)ccc2c(=O)c1Oc1ccccc1Br | 25µM*
Cc1sc(NC(=O)C2CCCO2)c(C#N)c1C (stereo unspecified) | -9%
CC(C)n1c(SCc2cc(=O)[nH]c3ccccc23)nc2c1c(=O)n(C)c(=O)n2C | 3%
COc1cc(C(Nc2ccc3c(c2)OCO3)C(=O)NC2CCCCC2)cc(OC)c1OC (stereo unspecified) | u
Cc1ccccc1N1CCN(Cc2c(C#N)c3ccccc3n2C)CC1 | 8%
COC(=O)C1C(=O)NC(SC)=C(C#N)C1c1ccccc1F (stereo unspecified) | 7%
C=CCN1CCc2c(cc(O)c(O)c2Cl)C(c2cccc(C)c2)C1 (stereo unspecified) | u
CCOC(=O)C(NC(=O)c1ccccc1)(Nc1cc(C)on1)C(F)(F)F (stereo unspecified) | 13%
C=CCOC(=O)C1=C(C)OC(N)=C(C#N)C1c1c(C)nn(-c2ccccc2)c1Cl (stereo unspecified) | -11%
COc1ccc(C2N(c3cc(C)on3)C(=O)C3CCCN32)cc1OC (stereo unspecified) | 3%
NC(=O)COC(=O)CNC(=O)c1ccc(Cl)cc1 | 7%
O=C(c1ccc(CS(=O)(=O)Cc2ccc(Cl)cc2)o1)N1CCCC1 | -12%
CCN1CCCC1CNC(=O)c1cn(C)c2ccc(S(=O)(=O)N3CCCCCC3)cc2c1=O (stereo unspecified) | 8%
CCCSc1nnc2nc3c(nn12)c1ccccc1n3C | -4%
CSC1=NCCN1C(=O)c1ccco1 | 0%
CCOC(=O)c1ccc(CNS(=O)(=O)c2c(C)ccc3nsnc23)o1 | 2%
Cc1oc2c(CN(C)C)c(O)ccc2c(=O)c1-c1cscn1 | 32µM*
CCN1CCN(C(=O)c2ccc3c(c2)N(Cc2ccc(F)cc2)C(=O)c2ccccc2S3=O)CC1 (stereo unspecified) | -2%
Cc1ccc(C(=O)CCNc2cccc(Br)c2)o1 | -9%
COc1ccc(CN(CCN2CCOCC2)C(=O)c2c(F)cccc2F)cc1OC | 9%
CCN(CC)CCCCn1c(-c2ccccc2)nc2c(N(CCOC)CCOC)nc(C)nc21 | 25µM*
COc1ccc(C)cc1NC(=O)C1C2C=CC(C2)C1C(=O)O (stereo unspecified) | 6%
COc1cccc(Nc2nc(-c3sc(N)nc3C)cs2)c1 | -10%
Cc1ccc(-c2nc3ncccc3o2)cc1NC(=O)c1cc2ccccc2o1 | i
N[C@@H](CSCc1ccccc1)C(=O)O | 6%[11.4 µM]
Cc1nnc(SCCn2c(N3CCCCCC3)nc3c2c(=O)[nH]c(=O)n3C)s1 | 1%
Cc1ccc(CN2C(=O)CCC2C(=O)NCCN2CCN(c3cccc(Cl)c3)CC2)cc1 (stereo unspecified) | 7%
COc1ccccc1Nc1ncc(C(C)=O)c(C)n1 | -1%
O=C(c1ccco1)N1CCN(C(=O)C2c3ccccc3Oc3ccccc32)CC1 | -5%
CCN1C(=O)NC(c2cccnc2)C(C(=O)OC)=C1C (stereo unspecified) | -1%
O=C(CN1CCN(c2ccc(F)cc2)CC1)Nc1cc(C(F)(F)F)ccc1Cl | -5%
CCn1cc(C(=O)OCC(=O)NCc2ccc3c(c2)OCO3)c(=O)c2ccc(C)nc21 | -4%
COCc1nnc(NC(=O)CCCOc2ccccc2OC)s1 | -15%
COc1ccc(C(=O)SC2=NCCS2)cc1OC | 3%

Taken from above.
COc1ccc(CN(CCN2CCOCC2)C(=O)c2c(F)cccc2F)cc1OC @ HSD17B inh = 9%
CCOC(=O)c1ccc(CNS(=O)(=O)c2c(C)ccc3nsnc23)o1 @ HSD17B inh = 2%
CCN1C(=O)NC(c2cccnc2)C(C(=O)OC)=C1C (stereo unspecified) @ HSD17B inh = -1%
Cc1ccc(C(=O)CCNc2cccc(Br)c2)o1 @ HSD17B inh = -9%
CSC1=NCCN1C(=O)c1ccco1 @ HSD17B inh = 0%
COc1ccc(C)cc1NC(=O)C1C2C=CC(C2)C1C(=O)O (stereo unspecified) @ HSD17B inh = 6%

Next section
SMILES | HSD17B inh
O=c1[nH]c(CN2CCN(Cc3ccc4c(c3)OCO4)CC2)nc2sc3c(c12)CCC3 | 2%
CC1CC(=O)C2=C(C1)Nc1ccccc1N(C(=O)COc1ccccc1)C2c1ccco1 (stereo unspecified) | -7%
Cn1c(SCC(=O)NCc2cccs2)nnc1-c1ccco1 | -6%
COc1ccc(C2/C(=C(/O)c3ccc(F)cc3)C(=O)C(=O)N2CCCN(C)C)cc1 (stereo unspecified) | 1%
Cc1cc(Nc2ccc3c(c2)OCCO3)n2ncnc2n1 | -2%
O=C(Nc1nc(-c2ccccc2)cs1)C1CCCO1 (stereo unspecified) | -8%
COc1cc2oc(=O)c(Br)c(C)c2c(OC)c1OC | -3%
O=C(NC1CCCCC1)NC1(C(=O)NCCCN2CCOCC2)CCCCC1 | 10%
COc1ccccc1N1CC(O)=C(c2nc3ccccc3s2)C1=N | u
Cc1cc(C)nc(SCc2ccc3nonc3c2)n1 | -19%
CC(C)=CCC/C(C)=C/CC/C(C)=C/CSc1ccccc1C(=O)O | u
C=CCOC(=O)CCC(=O)Nc1cc(OC)nc(OC)n1 | 10%
CCCC(=O)C1=C(O)C(C(=O)OC)C(C)(C)CC1=N (stereo unspecified) | 1%
COc1ccc(-c2[nH]nc3c2C(c2ccc(OC(=O)N4CCOCC4)cc2)C(C#N)=C(N)O3)cc1 (stereo unspecified) | -18%
CCn1c(Cc2ccccc2)nnc1SCC(=O)Nc1nnc(-c2ccccc2)s1 | -3%
CCC(C)NC(=O)CSC1=Nc2ccccc2C2=NC(CC(=O)NCc3ccccc3)C(=O)N12 (stereo unspecified) | 25µM*
O=C1c2c(O)ccc([N+](=O)[O-])c2C(=O)c2c([N+](=O)[O-])ccc(O)c21 | -15%
COc1cc(SC)ccc1C(=O)NCC1CCCO1 (stereo unspecified) | 2%
Cc1ccc2c(c1)nnn2C1CCN(CC(=O)Nc2ccc3c(c2)OCCO3)CC1 | -3%
CCN1C(=O)/C(=C2\SC(N3CCCCC3)=NC2=O)c2ccccc21 | -4%

Fetched by compound from the list above, 2 records:
SMILES | HSD17B inh
Cn1c(SCC(=O)NCc2cccs2)nnc1-c1ccco1 | -6%
CCC(C)NC(=O)CSC1=Nc2ccccc2C2=NC(CC(=O)NCc3ccccc3)C(=O)N12 (stereo unspecified) | 25µM*

The list goes on.
SMILES | HSD17B inh
Cc1cccc(C)c1NC(=O)c1ccc(-n2cnnn2)cc1 | 3%
COc1ccc(-c2nc3cnc(OC)nc3n(C3CC3)c2=O)cc1 | -8%
CCOC(=O)CNC(=O)C(Cc1ccccc1)NS(=O)(=O)c1cccs1 (stereo unspecified) | 6%
Cc1cc(C)nc(N2C(=O)CC(C(C)c3ccccc3)C2=O)n1 (stereo unspecified) | -3%

Some of the compounds tested; count on the stated rates, not on these rows.
